Vaccinia mCherry: vaccinia inhibition (mCherry reporter). Vaccinia virus mCherry reporter infection, fluorescence; about a quarter of the inactives have no number. actives 0.63% (n = 310,000). AID 720579. Potency, µM (top dose mostly 36.5 µM), without a hit: at the highest dose activity change, negative = inhibition, actives largely listed as inhibitors; active = well fitted inhibition curve with a large enough effect; inconclusive = small, poorly fitted or top-dose-only effect; inactive = no such curve, though single readings can be large or run the other way; tested in A549 cells; further: nearly all actives have a fitted effect of over 35% in size; inactives centre near -10
Vaccinia Venus: inhibitors of vaccinia virus (Venus reporter); actives 0.46% (n = 330,000); Potency, µM (series often up to 36.5 µM), for inactives: at the top dose activity change, negative = inhibition, usual class: inhibitors; Vaccinia virus Venus reporter expression, fluorescence; active means well fitted inhibition curve with a large enough effect; inconclusive means small, poorly fitted or top-dose-only effect; inactive means no such curve, though single readings can be large or run the other way; tested in A549 cells; further: nearly all actives have a fitted effect of over 30% in size; inactives centre near -10
Active calls of the source: *; i = inactive; u = inconclusive; x = not tested or not shown; & = joins results of further samples; [ ] = dose if it differs, or a comment. On the % scale 0 is the no-effect control and ±100 the full control effect; potency means the concentration at half of the fitted maximal effect.

SMILES | Vaccinia mCherry | Vaccinia Venus
Cc1csc(=O)n1CCC(=O)OCc1nnc(-c2ccccc2)o1 | -12% | -4%
COc1ccc(NC(=O)CSc2cn(CC(=O)N3CCOCC3)c3ccccc23)cc1OC | -13% | -8%
O=C(Nc1ccccc1F)c1ccc(COc2ccc(Cl)cc2Cl)o1 | -4% | 3%
COc1ccc(NC(=O)CN2CCN(c3ccccc3F)CC2)c(OC)c1 | -1% | -5%
Cc1nc2nc(SCC(=O)NCc3ccco3)nn2c(C)c1Cc1ccccc1 | -16% | -7%
O=C(c1cc(COc2cccc3cccnc23)on1)N1CCC[C@H]1CO | -15% | -8%
COc1cc(NC(=O)Cn2c(=O)oc3cc(S(=O)(=O)N4CCCCCC4)ccc32)cc(OC)c1 | -30% | -26%
CC(C)[C@H](NC(=O)c1ccccc1Cl)C(=O)OCc1cc([N+](=O)[O-])cc2c1OCOC2 | i | -9%
O=c1cc(NCc2ccccc2)[nH]c(=O)[nH]1 | -17% | -3%
CN1c2ccccc2-c2nc3ccccc3n2C1c1cccs1 (stereo not given) | -23% | -14%
COCCNC(=O)/C(C#N)=C/c1c(F)cccc1Cl | -3% | -11%
CCOC(=O)C1=C(C)N=c2sc(=Cc3ccc(OCC(=O)O)cc3)c(=O)n2C1c1ccc(SC)cc1 (stereo not given) | 3% | 11%
Cc1ccc(OCC(=O)OCc2cc(=O)n3nc(C4CC4)sc3n2)cc1 | -12% | -15%
CC1CN(C(=O)/C=C/c2ccccc2[N+](=O)[O-])CC(C)O1 (stereo not given) | -6% | 2%
C[C@@H]1CC[C@@]2(O[C@H](CCO)C[C@@H](O)[C@@H]2O)O1 | i | -8%
Cc1ccc(NC(=O)C2(c3cccs3)CCOCC2)cc1C | -14% | -12%
Cn1nnnc1SCSc1nnnn1C | x | -6%
Cc1ccc(C)c(C(O)c2ncc(-c3ccccc3)[nH]2)c1 (stereo not given) | i | -23%
COc1ccccc1NC(=O)c1cc(Cl)nc2ccccc12 | i | -13%
Cc1[nH]c(C)c(S(=O)(=O)NCCc2ccccc2)c1C(=O)N1CCCCC1 | i | -5%
O=C1CC(c2ccncc2)c2cc3c(cc2N1)OCO3 (stereo not given) | x | -8%
COc1ccccc1OCC(=O)N(Cc1nc(-c2ccccc2)no1)C(C)C | -9% | -12%
COc1ccc(CCNC(=O)CC(c2ccccc2)c2cccc(C)c2O)cc1OC (stereo not given) | u | -18%
CCc1nn(Cc2ccc(Cl)cc2)c(=O)c2cc3cc(C)ccc3n12 | -6% | 0%
CC1CC(NC(=O)c2c(O)nc3ccccn3c2=O)CC(C)(C)C1 (stereo not given) | -12% | -11%

Additional results:
SMILES | Vaccinia mCherry | Vaccinia Venus
COCCOC(=O)c1c(C)oc2ccc(OC(=O)N(C)C)cc12 | -15% | -11%
O=C(CNS(=O)(=O)c1ccc(F)c(Cl)c1)N1CCCCCC1 | -7% | -8%
CCOC(=O)CSc1nc(=O)n2ccccc2n1 | -4% | -12%
C[C@H](NC(=O)c1ccco1)C(=O)Nc1nc(-c2ccccn2)cs1 | -12% | -13%
COc1cccc(CNC(=O)Cn2cc3c(n2)-c2c(oc(C(=O)N4CCCC4)c2C)CC3)c1 | -19% | -12%
O=C(NCCc1ccccn1)C1CC12CCN(C(=O)c1cccc(C(F)(F)F)c1)CC2 (stereo not given) | -12% | -5%
CCOC(=O)C1=C(C)NC(C)=C(C(=O)OCC)C1C(=O)OCC(=O)N1c2ccccc2CC1C (stereo not given) | -30% | -6%&-23%
C/C(=N\NC(N)=O)c1ccc(-n2ccnc2)cc1 | -28% | -14%
CCOc1ccc(NC(=O)CN(C)C(=O)CC(NC(=O)c2ccccc2)c2ccccc2)cc1OCC (stereo not given) | -25% | -12%
COc1ccccc1CNc1nc(Nc2ccc(C)cc2C)c2sccc2n1 | -12% | -9%
Cc1ccc(NC(=O)CN2C(=O)S/C(=C\c3cccn3-c3cccc(C(=O)O)c3)C2=O)c(C)c1 | -14% | -12%
CN(Cc1ccccc1)C(=O)C1(C)CCN1C(=O)Cc1ccc(Cl)cc1Cl (stereo not given) | 31%[activator] | -5%
CCOc1cccc(C(=O)NC(=S)Nc2cccnc2)c1 | -18% | -15%
C[C@H](NC(=O)/C=C/[C@H]1O[C@@H](n2ccc(=O)[nH]c2=O)[C@H](O)[C@@H]1O)C(=O)O | i | -3%
O=C1C=CC2(C=C1)O[C@H](Cc1ccccc1)[C@@H](Cc1ccccc1)O2 | 10µM* | 22µM*
COc1ccc(Cc2nnc(SCC(=O)c3ccc4c(c3)OCO4)o2)cc1 | -17% | -28%
O=C1NCCCC1(c1ccccc1)c1ccccc1 | -15% | -2%
N#CC1=C2SCN(C3CCCCC3)CN2C(=O)CC1c1ccc(F)cc1 (stereo not given) | -5% | 7%
OC(COc1ccc(Br)cc1)CN1CCOCC1 (stereo not given) | x | -7%
CN(CC(=O)Nc1cccc(F)c1)C(=O)c1ccc(C(=O)c2ccccc2)cc1 | -8% | -16%
CCOC(=O)c1ccc(CNC(=O)Cn2nnc(-c3ccccc3F)n2)o1 | 0% | -3%
CSc1ccc(/C=N/NC(=O)c2ccc(C)c(C)c2)cc1 | -12% | -20%
CCOC(=O)C1CCN(c2ncnc3c2nnn3Cc2ccccc2Cl)CC1 | 1% | -4%
CCn1c(SCC(=O)Nc2cccnc2Cl)nnc1-c1ccccc1 | -2% | -13%
O=S(=O)(Nc1cccnc1)c1ccccc1 | i | -9%

Further compounds.
SMILES | Vaccinia mCherry | Vaccinia Venus
CCOC(=O)C1CCCN(S(=O)(=O)c2ccc(-c3cc(C)no3)s2)C1 (stereo not given) | -18% | -11%
COc1cccc(CNC(=O)c2ccc3nc[nH]c3c2)c1 | -6% | -8%
CCOC(=O)c1ccc[n+](CC(=O)c2ccccc2)c1 | i | -3%
O=C(N/N=C/c1ccco1)c1ccc(NC(=O)C2CCCCC2)cc1 | -7% | 0%
COc1ccc(NC(=O)CN2C(=O)NC(C)(C3CCCCC3)C2=O)c(OC)c1 (stereo not given) | i | -5%
CN1CCN(/N=C/c2ccc(-c3ccccc3)cc2)CC1 | u | -24%
CCOC(=O)C1/C(=N\O)CC(C)(O)C(C(=O)OCC)C1c1ccc(N(C)C)cc1 (stereo not given) | x | -11%
Cc1c(Cl)cccc1Nc1ccccc1C(=O)O | -20% | -9%&-16%
COc1ccc(N)cc1NC(=O)CN1CCOCC1 | -4% | -12%
O=C(COC(=O)C1(c2ccccc2F)CCCC1)N1CCc2ccccc21 | -20% | -12%
c1cncc(CNc2nc(N3CCOCC3)nc(N3CCOCC3)n2)c1 | -1% | -13%
O=C(Nc1ccc(Br)cc1)N1CCCC(O)C1 (stereo not given) | -4% | -7%
CCOC(=O)[C@]12Cc3ccc4ccccc4c3[C@H]1N(Cc1ccccc1)C(=O)c1ccccc12 | -13% | -7%
COc1ccc(C(C(=O)NC2CCCCC2)n2c(=O)c(-c3ccco3)nc3ccccc32)cc1 (stereo not given) | -9% | -14%
Cc1ccc(-c2nnc(Nc3cccc(Br)c3)c3ccccc23)cc1S(=O)(=O)N1CCCCC1 | -8% | -6%
CCc1nc2c(=O)[nH]cnc2o1 | -7% | -1%
CCCCCc1c(-c2ccc(Br)cc2)ncn1CCc1ccccc1OC | -4% | -23%
Cc1ccc(NC(=O)c2cnc(N3CCCC3)nc2C)cc1F | 15% | -5%
COc1ccc(CCNC(=O)CCCOc2cc(=O)n(C)c3ccccc23)cc1OC | -13% | 13%
O=C(CN1C(=O)NC2(CCc3ccccc32)C1=O)c1ccc(Br)cc1 (stereo not given) | -23% | -11%
O=C1C=C(c2cc3ccccc3s2)C[C@@H](c2ccc(F)cc2)C1 | i | -6%
CCOC(=O)C[C@H]1c2cc(F)ccc2S(=O)(=O)N1Cc1cc(OC)c(OC)c(OC)c1 | i | -9%
CCOC(=O)c1ccc(NC(=O)COc2ccc(S(=O)(=O)N3CCCC3)cc2)cc1 | -20% | -10%
CC(C(=O)c1ccccc1)[n+]1cccc(C(N)=O)c1 (stereo not given) | i[7.34 µM] | 2%[7.34 µM]
CC1(C(=O)N2CC3(CC(c4cccc([N+](=O)[O-])c4)=NO3)C[C@H]2C(=O)NCC(N)=O)CC1 (stereo not given in full) | -21% | 2%

(cont.)
SMILES | Vaccinia mCherry | Vaccinia Venus
Cc1cc([N+](=O)[O-])c(N2CCC[C@@H]2C(=O)O)c([N+](=O)[O-])c1 | -9% | -10%
CCOC(=O)c1ccc(NCCOC)c([N+](=O)[O-])c1 | i | -5%
CC(=O)NC1(C(F)(F)F)C(=O)Nc2c1c(=O)[nH]c(=O)n2Cc1ccco1 (stereo not given) | x | -7%
O=C(NCCc1ccccc1O)c1cc2c(cc1[N+](=O)[O-])OCO2 | i | -8%
CC1(C(=O)NC2CCCCC2)CCC(=O)N1CCOc1ccccc1 (stereo not given) | 18% | -3%
Cc1cccc(-n2nnnc2SCc2csc(-c3ccccc3)n2)c1 | -19% | -12%
O=C(Cn1c(=O)n(Cc2ccc3c(c2)OCO3)c(=O)c2oc3ccccc3c21)Nc1ccccc1 | -13% | -18%
CCn1c(SCC(=O)Nc2nc(C)cs2)nnc1C(NC(=O)c1ccccc1Cl)C(C)C (stereo not given) | x | -8%
CCOc1ccccc1NC(=O)N1CCC(n2c(C)nc3cccnc32)CC1 | 1% | 7%
COc1cccc(CNc2nc3cc(-c4cscc4C)sc3c(=O)n2C)c1 | -16% | -27%
CCCn1cc(SCC(=O)Nc2ccc3c(c2)OCO3)c2ccccc21 | u | -13%
CCN(CC)S(=O)(=O)c1nnc(NC(=O)COc2ccccc2)s1 | i | -1%
Cc1ccc(NC(=O)Cn2cc3c(n2)CCCC3)c(C)c1 | -7% | -17%
COc1ccc(N2CCN(C(=O)Nc3cccc(C(F)(F)F)c3)CC2)cc1 | -18%&-8% | -6%&-8%
COc1cc(NC(=O)c2ccc(-c3ccc(F)c(F)c3)c3ccoc23)cc(OC)c1OC | 3% | -26%
CCOc1ccc2oc(C(=O)N(Cc3nnc(-c4ccccc4Cl)o3)C3CC3)c(C)c2c1 | -13% | -20%
O=C(CCOc1ccccc1)N(Cc1cccnc1)c1nc2c(Cl)cccc2s1 | -1% | u
CN1CCN(CC(=O)Nc2ccc(S(=O)(=O)N(C)C)cc2)CC1 | -13% | -5%
N#CCCN(C(=S)Nc1ccc(S(=O)(=O)N2CCOCC2)cc1)c1ccccc1F | -17% | -11%
O=c1[nH]nc(-c2cc(-c3ccccc3)nc3ccccc23)o1 | -4% | -21%
O=C(Cn1nnc(-c2ccccc2-n2cnnn2)n1)NCc1ccccc1 | i | -7%
Cc1ccc2nc(SCC(=O)Nc3cc(C(F)(F)F)ccc3N3CCOCC3)[nH]c2c1 | x | u
COCCNC(=O)c1snc2ccc(Cl)cc12 | -24% | -19%
CC1(C(=O)NCc2cccc(Cl)c2)Cc2c(-c3ccccc3)ccnc2O1 (stereo not given) | 30%[activator] | -7%
CN(Cc1c(C(=O)N/N=C/c2ccccc2O)nnn1-c1nonc1N)C1CCCCC1 | u | u

Some of the entries above, set out differently:
| SMILES | Vaccinia mCherry | Vaccinia Venus |
| --- | --- | --- |
| Cc1cccc(-n2nnnc2SCc2csc(-c3ccccc3)n2)c1 | -19% | -12% |
| O=C(Cn1c(=O)n(Cc2ccc3c(c2)OCO3)c(=O)c2oc3ccccc3c21)Nc1ccccc1 | -13% | -18% |
| CCn1c(SCC(=O)Nc2nc(C)cs2)nnc1C(NC(=O)c1ccccc1Cl)C(C)C (stereo not given) | x | -8% |
| CCOc1ccccc1NC(=O)N1CCC(n2c(C)nc3cccnc32)CC1 | 1% | 7% |
| COc1cccc(CNc2nc3cc(-c4cscc4C)sc3c(=O)n2C)c1 | -16% | -27% |
| CCCn1cc(SCC(=O)Nc2ccc3c(c2)OCO3)c2ccccc21 | u | -13% |
| CCN(CC)S(=O)(=O)c1nnc(NC(=O)COc2ccccc2)s1 | i | -1% |
| Cc1ccc(NC(=O)Cn2cc3c(n2)CCCC3)c(C)c1 | -7% | -17% |
| COc1ccc(N2CCN(C(=O)Nc3cccc(C(F)(F)F)c3)CC2)cc1 | -18%&-8% | -6%&-8% |
| COc1cc(NC(=O)c2ccc(-c3ccc(F)c(F)c3)c3ccoc23)cc(OC)c1OC | 3% | -26% |
| CCOc1ccc2oc(C(=O)N(Cc3nnc(-c4ccccc4Cl)o3)C3CC3)c(C)c2c1 | -13% | -20% |
| O=C(CCOc1ccccc1)N(Cc1cccnc1)c1nc2c(Cl)cccc2s1 | -1% | u |
| CN1CCN(CC(=O)Nc2ccc(S(=O)(=O)N(C)C)cc2)CC1 | -13% | -5% |
| N#CCCN(C(=S)Nc1ccc(S(=O)(=O)N2CCOCC2)cc1)c1ccccc1F | -17% | -11% |
| O=c1[nH]nc(-c2cc(-c3ccccc3)nc3ccccc23)o1 | -4% | -21% |
| O=C(Cn1nnc(-c2ccccc2-n2cnnn2)n1)NCc1ccccc1 | i | -7% |
| Cc1ccc2nc(SCC(=O)Nc3cc(C(F)(F)F)ccc3N3CCOCC3)[nH]c2c1 | x | u |

Next structures
SMILES | Vaccinia mCherry | Vaccinia Venus
O=C(COc1ccc(S(=O)(=O)N2CCCCC2)cc1Cl)N1CCCC1 | -9% | -14%
Cc1ccc(NC(=O)Cn2cccc2C2=NC(c3ccccc3)CO2)cc1C (stereo not given) | u | -29%
Cc1ccc(CCNC(=O)C2CCN(S(=O)(=O)N3CCC4(CC3)OCCO4)CC2)cc1 | -1% | 5%
CN(C)C(CNC(=O)c1cccc(OC(F)F)c1)c1ccco1 (stereo not given) | i | -12%
CCCc1cc(=O)oc2c(C)c(OS(C)(=O)=O)ccc12 | -24% | -11%
CCN(CC)C(=O)Cn1cc(C(=O)C(=O)NCCCN2CCCCC2)c2ccccc21 | 0% | 1%
CN(C)c1ccc(C(=O)OCC(=O)c2ccc[nH]2)cc1 | -1% | -2%
Cc1ccc(NC(=S)NNC(=O)Nc2ccccc2)cc1 | u | -28%

High-throughput results (PubChem BioAssay)
